Screening results (PubChem BioAssay)
UUG fidelity – alters start codon recognition fidelity in yeast. AID 602363. 350,000 tested, 0.13% active. S. cerevisiae UUG-firefly luciferase reporter, luminescence/redox ratio. activity score, % at 18.7 µM;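 active = replicate mean at a twofold rise or more, about +100% in these data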;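 also: firefly luciferase made from a UUG start codon reports start codon fidelity; reporter light over untreated wells divided by growth signal over untreated wells; some hits fall short of that in this replicate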
Env fusion inh – inhibitors of HIV Env-mediated cell fusion | HeLa-JRFL Env/CEM21 cell fusion, luciferase | 360,000 tested, 1.1% active | AID 651610 | inhibition, % at 12.3 µM;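 active = mean replicate inhibition score of at least 50 and every replicate individually at or above 50; inconclusive = only one of the two criteria met; inactive = mean below 50 and not all replicates reaching 50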;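 also: 0% = plate neutral controls and 100% = maraviroc near 300 nM; one replicate is shown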
Rce1 inhib – inhibitors of yeast Ras-converting enzyme | Q03530 | yeast membranes, quenched prenylated peptide cleavage fluorescence | calls only | 290,000 tested, 0.27% active | AID 2563;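 active = fall in fluorescence gain of 50% or more versus controls, with final raw signal at or below 3038400; inconclusive = same 50% fall but final raw signal above 3038400; inactive = fall in fluorescence gain under 50%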;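 also: plate controls were neutral control wells for no effect and wells lacking membranes for full effect; tested at 10 µM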
Target sequence (Q03530 whole entry, looked up): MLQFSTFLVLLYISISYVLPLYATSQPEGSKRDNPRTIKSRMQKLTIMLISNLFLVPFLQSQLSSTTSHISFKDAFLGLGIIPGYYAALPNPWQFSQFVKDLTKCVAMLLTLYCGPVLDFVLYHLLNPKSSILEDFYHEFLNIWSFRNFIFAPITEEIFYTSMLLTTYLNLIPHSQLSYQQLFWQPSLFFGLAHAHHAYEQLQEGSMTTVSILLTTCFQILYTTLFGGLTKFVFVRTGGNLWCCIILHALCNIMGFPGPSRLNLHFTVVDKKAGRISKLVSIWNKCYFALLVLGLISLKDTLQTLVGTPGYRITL
PABP polyA inh – PABP-poly(A) binding inhibition | P11940 | 290,000 tested, 1% active | AID 2014 | PABP-poly(A) RNA binding, fluorescence polarization | inhibition, % at 35 µM;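 active = 50% or more with normal probe brightness, or confirmed in later tests; inconclusive = above 50% with abnormal brightness, or retests that disagree; inactive = below 50% or failed in later tests; about a fifth of its hits are not listed in these tables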;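 also: calls also rest on retests at 20 µM and on dose response follow-up; controls were probe without protein and protein plus probe with vehicle; some compounds called inactive have numbers as strong as hits; many hits fall short of the cut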
Target sequence (P11940 whole entry, looked up): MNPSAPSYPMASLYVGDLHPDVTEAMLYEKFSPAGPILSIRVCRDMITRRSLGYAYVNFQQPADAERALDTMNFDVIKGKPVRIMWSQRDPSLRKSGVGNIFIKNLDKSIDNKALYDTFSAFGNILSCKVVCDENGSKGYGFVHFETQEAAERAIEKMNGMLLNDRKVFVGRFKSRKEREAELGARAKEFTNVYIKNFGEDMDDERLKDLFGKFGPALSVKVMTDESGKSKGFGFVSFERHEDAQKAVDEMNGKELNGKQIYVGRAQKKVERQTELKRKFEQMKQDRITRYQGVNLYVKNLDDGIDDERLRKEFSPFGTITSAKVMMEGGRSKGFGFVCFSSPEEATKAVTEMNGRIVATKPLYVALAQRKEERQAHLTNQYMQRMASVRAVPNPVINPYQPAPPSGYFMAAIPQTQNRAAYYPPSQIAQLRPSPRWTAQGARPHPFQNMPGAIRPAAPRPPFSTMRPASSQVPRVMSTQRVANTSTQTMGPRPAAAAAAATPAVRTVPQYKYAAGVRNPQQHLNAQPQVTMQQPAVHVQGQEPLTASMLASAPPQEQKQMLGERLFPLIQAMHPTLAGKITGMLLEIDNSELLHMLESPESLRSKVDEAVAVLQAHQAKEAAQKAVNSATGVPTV
CSC inhib – cancer stem cell inhibition; inhibition, % at 7.5 µM; 300,000 tested, 1.1% active; AID 2717; cancer stem cell-like cells viability, luminescence;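 active = mean at 75% or more and at least half the replicates too; inconclusive = mean and replicates disagree; tested in HMLE shEcad cells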;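 also: 0% = median of negative and 100% = median of positive control wells; the first replicate is given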
MT1-MMP act inh – MT1-MMP (human) activation inhibition. HT1080 RFP-PRO-GFP cells, GFP/RFP ratio fluorescence, overnight; percent of plate control window, DMSO zero. P50281. GFP/RFP ratio change, % at 20 µM. 360,000 tested, 0.061% active;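 active = GFP/RFP ratio change of at least 30% with cell ATP level not reduced by more than half and red fluorescence within 50% of control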; also: strong numbers were not always called active
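Test system: HT1080 cells expressing an RFP-PRO-GFP fluorescent reporter construct / Compound dosing: single-point 20 µM compound, 1% DMSO / Schedule: cells overnight before dosing, compound overnight, 37 °C, 5% CO2 / Evaluation: GFP/RFP fluorescence ratio / Control set: DMSO and RFP-L50D-GFP cell wells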
eIF4H FP inh – inhibitors of RNA binding by human eIF4H. eIF4H fluorescence polarization binding assay. 290,000 tested, 0.94% active. inhibition, % at 35 µM. Q15056;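 active = 50% or more with normal probe brightness, or confirmed in later tests; inconclusive = above 50% with abnormal brightness, or retests that disagree; inactive = below 50% or failed in later tests; about a fifth of its hits are not listed in these tables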;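 also: calls also rest on retests at 20 µM and on dose response follow-up; 0% = protein and probe with vehicle and 100% = probe without protein; strong numbers were not always called active; many hits fall short of the cut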
MT1-MMP act inh RFP – second read-out of MT1-MMP act inh, no call of its own (marks repeat the call); RFP signal change, %; measured here: RFP expression control read;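 0 = vehicle wells; hits needed this value within 50% of zero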
Starred values were filed as active, the others as inactive; i = inactive; ? = inconclusive; . = not tested or not shown. Not all compounds are listed. The share of hits here may be higher or lower than overall.

SMILES | UUG fidelity | Env fusion inh | Rce1 inhib | PABP polyA inh | CSC inhib | MT1-MMP act inh | MT1-MMP act inh RFP | eIF4H FP inh
CC1(C)C2CCC1(CS(=O)(=O)Nc1ccc(S(=O)(=O)N3CCCCC3)cc1)C(=O)C2 (centres undefined) | 3 | 27 | i | 1 | . | -2 | -3 | 2
CCCS(=O)(=O)N1CCCC(C(=O)NC2CCCC(C)C2C)C1 (centres undefined) | -2 | . | i | 7 | -4 | 0 | 2 | 13
Cc1nnc(SCC(=O)Nc2sc3c(c2C(N)=O)CCC(C)C3)[nH]c1=O (centres undefined) | -8 | -1 | . | . | . | 0 | 5 | .
N#Cc1ccccc1COC(=O)c1ccc(Br)o1 | 0 | -7 | i | -1 | -14 | -1 | 1 | 7
Clc1cc(Cl)cc(CSc2nnc(-c3sccc3-n3cccc3)o2)c1 | -14 | . | i | -1 | 23 | -1 | -4 | -3
Brc1ccc(OCCCCN2CCCCC2)cc1 | -4 | 4 | i | 6 | 31 | -2 | 0 | 6
CCOC(=O)CN1CC23C=CC(O2)C(C(=O)Nc2ccc(F)c(C)c2)C3C1=O (centres undefined) | -10 | 7 | i | 10 | 2 | -3 | 3 | -8
CC/C(=C/c1sc2ccc(C)cc2[n+]1CCO)SC | . | -20 | i | 22 | . | -6 | 5 | -4
CCCCc1nc(NCCNC(=O)c2ccco2)c(C#N)c2c1CSC(C)(C)C2 | . | 19 | . | 39 | . | . | . | 10
COc1ccccc1NC(=O)C12CCC(C)(C(=O)C1)C2(C)C (centres undefined) | 1 | 10 | i | -8 | 2 | -2 | 2 | -2
NC(=O)c1ccc(NC(=O)CCNC(=O)c2ccco2)cc1 | . | -4 | i | -4 | -9 | -2 | 1 | -6
c1ccc(-c2nc(NCCCn3ccnc3)c3oc4ccccc4c3n2)cc1 | -18 | . | i | 11 | 3 | -4 | -2 | 6
O=C(Cn1cccc1C(=O)c1ccccc1)NCCCc1ccccc1 | . | 3 | i | 11 | -7 | -1 | -3 | -9
Cc1ccc(NC(=O)c2cc(NC(=O)c3ccco3)ccc2N2CCCCC2)cc1 | -10 | . | i | -2 | . | 6 | 1 | -3
Oc1ccc(/C=N/N=C/c2ccc(O)c(O)c2)cc1O | -16 | -4 | i | 19 | 41 | -12 | -8 | 1
O=c1cc(CN2CCN(c3ccc(Cl)c(Cl)c3)CC2)c2c(ccc3ccccc32)o1 | 2 | 26 | . | . | . | 3 | -4 | .
CN(Cc1c(C(=O)N/N=C/c2cccc(O)c2)nnn1-c1nonc1N)C1CCCCC1 | -23 | -9 | i | 6 | -1 | -1 | 3 | -7
CCOC(=O)c1c(C)oc2ccc(OCC(=O)N(CC)CC)cc12 | -6 | -209 | i | -6 | . | -1 | -7 | -4
COc1ccc(NC(=O)COc2ccc(Br)cc2)c(OC)c1 | -16 | -14 | i | 4 | -2 | 1 | -5 | -8
CC(CNC(=O)CN1C(=O)c2cccnc2Oc2ccc(Cl)cc21)c1ccccc1 (centres undefined) | -15 | 7 | i | 24 | -17 | -2 | -1 | -4
c1ccc(N/N=C2\CCCc3ccccc32)nc1 | -16 | -4 | i | -5 | -13 | 4 | 2 | 0
Cc1cccc(NC(=O)CSc2nnc(-c3ccccc3Br)o2)c1C | -9 | . | i | 0 | -13 | 3 | -1 | 4
CC1(C)CC(=O)C(C(=O)C2CCN(S(=O)(=O)c3ccccc3)CC2)C(=O)C1 | . | -1 | i | 6 | -18 | -3 | 1 | 0
CCCCC1(C)OC(=O)C(=Cc2ccc(-c3ccc(Cl)c(C(=O)O)c3)o2)C(=O)O1 (centres undefined) | . | -1 | i | 33 | 4 | -7 | 4 | 47
Cc1nc2c(c(=O)c3ccccc3n2C)c(=O)n1-c1ccccc1 | 2 | -11 | i | 15 | -14 | 5 | -4 | 4
COCCCNC(=O)C1CCN(c2ccc(N3CCOCC3)nn2)CC1 | -1 | -14 | i | 3 | -17 | 1 | 0 | -3
COCCCNC(=O)C[C@H]1C[C@H](C(=O)N2CCOCC2)[C@@]2(C)c3[nH]c4cc(-c5ccco5)ccc4c3CCN2C1=O | 4 | -1 | . | . | . | 0 | -4 | .
COCCCNC(=O)/C(C#N)=C/c1cc(C)[nH]c1C | . | -5 | i | 4 | -12 | 1 | 0 | -3
COCCCNC(=O)/C(C#N)=C/c1c(N2CCN(C)CC2)nc2c(C)cccn2c1=O | -8 | 12 | i | -7 | -7 | -2 | 0 | 7
COC(=O)N1CCN(c2ccc(C)cc2)C(C)C1 (centres undefined) | -27 | -5 | i | 14 | -9 | -2 | -1 | 1
C/C(=N\OCC(=O)NC(C)C)c1cccs1 | . | 10 | i | -4 | -10 | . | . | -4
CCOC(=O)N/N=C/c1ccc(Oc2ccccc2)cc1 | 5 | -13 | i | 0 | . | -5 | 1 | -2
CCCn1c2c(c(O)c(C(=O)Nc3nccs3)c1=O)CCCC2 | -16 | . | i | -9 | 9 | -1 | 2 | -1
Clc1ccc(-c2cnc(Oc3ccccc3)nc2)cc1 | . | . | i | 28 | -12 | 4 | -1 | -5
CCCCCC(=O)Nc1cc(S(=O)(=O)N2CCOCC2)ccc1N1CCN(C)CC1 | 1 | . | i | -8 | 2 | -5 | 1 | -13
COc1ccc(CN2CCc3ccccc3C2)cc1Br | 13 | 18 | . | 13 | 13 | -3 | 3 | 16
O=C(NNC1=C(C(=O)C(F)(F)F)CCC1)c1cccc(Cl)c1 | -21 | . | i | 13 | 113* | 4 | 3 | 14
COc1ccc(N=Cc2cc(Cc3ccccc3Cl)cc([N+](=O)[O-])c2O)cc1OC | . | . | i | 2 | . | 13 | 6 | ?
O=C(COC(=O)C1CC1)NC(=O)NCc1ccccc1 | -13 | -7 | i | -17 | -5 | 2 | 4 | 6
COCCOC(=O)C1=C(C)NC2(O)c3ccccc3C(=O)C12O (centres undefined) | . | -2 | i | -13 | -11 | -1 | 8 | -2

A few values from above.
MT1-MMP act inh result of CCCS(=O)(=O)N1CCCC(C(=O)NC2CCCC(C)C2C)C1 (centres undefined) is entered as 0
eIF4H FP inh result of C/C(=N\OCC(=O)NC(C)C)c1cccs1 is entered as -4
CSC inhib result of COCCOC(=O)C1=C(C)NC2(O)c3ccccc3C(=O)C12O (centres undefined) is entered as -11

Other records follow:
SMILES | UUG fidelity | Env fusion inh | Rce1 inhib | PABP polyA inh | CSC inhib | MT1-MMP act inh | MT1-MMP act inh RFP | eIF4H FP inh
Cc1c(NC(=S)N/N=C/C=C/c2ccccc2)c(=O)n(-c2ccccc2)n1C | -35 | -13 | i | 2 | -5 | 3 | -3 | 1
COc1ccc2c(=O)c(-c3cnn(-c4ccccc4)c3)c(C)oc2c1 | 1 | . | i | 1 | 14 | 2 | -7 | -6
O=C(Nc1nc(-c2ccc3ccccc3c2)cs1)c1ccc(N2C(=O)CCC2=O)cc1 | -12 | -13 | i | 4 | 9 | 2 | -4 | 0
Cc1ccc(-c2cc(=O)c3cc(Cl)ccc3[nH]2)cc1 | . | . | i | 0 | -2 | . | . | 6
COc1ccccc1CC(=O)Nc1cccc(C(=O)NN2C(=O)c3ccccc3C2=O)c1 | . | 24 | i | -7 | -18 | -2 | 3 | -13
Cc1onc(-c2c(Cl)cccc2Cl)c1C(=O)NCCc1ccc(S(N)(=O)=O)cc1 | -13 | -20 | i | 1 | -5 | -4 | -1 | 6
N#Cc1c(C(F)(F)F)cc(Cc2ccccc2)nc1SCC(=O)NCC(=O)O | . | 1 | i | . | -3 | -1 | -6 | .
Cn1ccnc1SCC(=O)NC1CCCCC1 | -10 | . | i | 0 | -2 | 3 | 5 | 2
COCCCNC(=O)C(=O)Nc1ccc2c(c1)N(S(=O)(=O)c1cccs1)CCC2 | -5 | -54 | i | . | . | 9 | -2 | .
O=C(Nc1cc(-c2ccccc2)nn1-c1c(Cl)cccc1Cl)c1ccc(F)cc1 | -13 | 8 | . | . | 17 | 0 | -1 | .
CCCCC(Sc1nc(N)c(NC(=O)c2ccco2)c(=O)[nH]1)C(=O)O (centres undefined) | -1 | 17 | i | 18 | 1 | -2 | 3 | 12
CC(C)CNC(=O)NC(=O)COC(=O)c1ccccc1Sc1ccc(C(F)(F)F)cc1[N+](=O)[O-] | -2 | -155 | i | 0 | 11 | 7 | -12 | 2
O=C(c1ccccc1)c1ccc(OC(=O)N2CCOCC2)cc1 | -10 | . | i | 0 | -3 | 6 | 4 | 0
C#Cc1ccc([C@H]2C=C(C(=O)N3CCN(Cc4ccccc4)CC3)O[C@@H](OCc3ccc(CO)cc3)C2)cc1 | 2 | -7 | i | -5 | 7 | -1 | -8 | 15
O=C(CCCN1C(=O)/C(=C\c2cccs2)SC1=S)NNC(=O)c1cccnc1 | . | 11 | i | -4 | -4 | 5 | 4 | 5
Cc1ccc(S(=O)(=O)N2CCCC2C(=O)Nn2cnnc2)cc1 (centres undefined) | -14 | -5 | i | -3 | 4 | -4 | -5 | -4
Cc1cc(C)n(CCNC(=O)CCc2nnc(CCc3ccccc3)o2)n1 | -4 | -22 | i | -6 | 13 | -4 | 2 | -5
CCOc1ccc(/C=C2\SC(N3CCCCC3)=NC2=O)cc1 | -21 | 12 | i | 1 | 13 | 9 | 2 | -1
COc1ccccc1CCNC(=O)C(=O)Nc1cc2c3c(c1)CC(=O)N3CCC2 | -22 | -11 | i | . | -2 | 4 | -1 | .
CCC(=C(c1ccc(OC)cc1)c1ccc(OC)cc1)c1cn(CC(O)CN(CCO)CCO)c2ccccc12 (centres undefined) | . | -38 | i | -9 | 46 | -5 | -3 | -1
CC(=O)N1CCN(C(=O)COC(=O)c2oc3ccccc3c2C)CC1 | -4 | . | . | . | -11 | 0 | 1 | .
N#CCCn1cc(C(=O)Nc2ccc(C(=O)O)cc2)c(-c2cccc(Br)c2)n1 | 4 | 12 | i | 8 | -13 | 2 | -1 | 9
Cc1cc(NC(=O)CCC(=O)N(Cc2ccccc2)C2(C(=O)NC3CCCCC3)CCCC2)no1 | 6 | 8 | i | 3 | -7 | -5 | -10 | 2
O=C1Nc2ccc(Cl)cc2[C@@](C#CC2CC2)(C(F)(F)F)O1 | . | . | i | 3 | ? | . | . | 20
Cc1ccc(C)c(CSC2=NCCN2C(=O)c2cccs2)c1 | . | 5 | i | 8 | -14 | 0 | -6 | -7
CCCNC(=S)Nc1ccc(Oc2ccccc2)cc1 | -17 | -36 | i | -5 | 9 | 4 | -2 | -6
Cc1cccc(NC(=O)CSc2nnc(-c3ccco3)o2)c1C | -23 | . | i | -6 | -5 | 2 | 6 | 0
CCN(CC)S(=O)(=O)c1cc(C(=O)Nc2cc(C)[nH]n2)ccc1Cl | -11 | . | i | -7 | -15 | 2 | -1 | 1
O=C(CSc1ncnc2nc[nH]c12)Nc1ccc(Br)cc1Cl | . | 7 | i | 1 | 5 | -2 | -3 | 0
COc1ccc(CCNc2nc(C)cc(C)n2)cc1OC | -9 | -61 | i | -9 | -37 | 2 | 4 | -11
N#Cc1c(NC(=O)CN2C(=O)c3ccccc3C2=O)oc(-c2ccccc2)c1-c1ccccc1 | -6 | 8 | i | . | -5 | 17 | 8 | .
Cc1ccc(S(=O)(=O)Nc2ccc3c(c2)nc2n3CCN(Cc3ccccc3)C2)cc1 | -5 | 13 | i | 6 | -10 | -4 | -2 | -3

3 of the entries above in order of the MT1-MMP act inh RFP value, smallest number first:
Compound	MT1-MMP act inh RFP
Cc1cc(NC(=O)CCC(=O)N(Cc2ccccc2)C2(C(=O)NC3CCCCC3)CCCC2)no1	-10
Cc1ccc(C)c(CSC2=NCCN2C(=O)c2cccs2)c1	-6
N#Cc1c(NC(=O)CN2C(=O)c3ccccc3C2=O)oc(-c2ccccc2)c1-c1ccccc1	8
